ClpP mod – qHTS Assay for Activators of ClpP; purified B. subtilis ClpP, FRET peptide cleavage, 20 min; Potency, µM (top dose mostly 57.5 µM), for inactives: at the top dose activity change, negative = active; 1.9% of 340,000 active; AID 651965, 2013; active = well fitted falling curve with a large enough effect; inconclusive = small, poorly fitted or top-dose-only effect; inactive = no such curve, though single readings can be large or run the other way; further: potency means the concentration at half of the fitted maximal effect; the source files actives as falling curves though it sought activators and does not explain the sign; nearly all actives have a fitted effect of over 65% in size; many hits overshoot -100%
Target sequence (P80244 whole entry, looked up): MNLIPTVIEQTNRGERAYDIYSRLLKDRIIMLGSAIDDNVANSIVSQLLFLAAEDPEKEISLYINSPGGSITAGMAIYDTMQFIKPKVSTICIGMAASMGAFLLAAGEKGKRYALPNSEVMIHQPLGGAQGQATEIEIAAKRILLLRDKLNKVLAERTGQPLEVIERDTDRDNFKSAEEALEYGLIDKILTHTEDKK
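Buffer: 100 mM Tris/HCl pH8, 100 mM KCl, 0.05% low protease BSA, 2.5% glycerol, 0.01% Tween-20. ClpP 10 microg/mL final; 20 min RT; delta FRET normalized to ADEP and DMSO controls.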
Sfp PPTase inh – qHTS Assay for Inhibitors of Bacillus subtilis Sfp phosphopantetheinyl transferase (PPTase); 3.5% of 310,000 active; 4'-phosphopantetheinyl transferase ffp (Bacillus subtilis), Q9F4F7; Biochemical Sfp PPTase activity, qHTS; Potency, µM, for the others: max response, negative = inhibition, most hits filed as inhibitors; AID 1490, 2009; active means well fitted inhibition curve with a large enough effect; inconclusive means small, poorly fitted or top-dose-only effect, or another doubt; inactive means no such curve, though single readings can be large or run the other way;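 further: the enzyme is Sfp with the accession as filed and its product quenches rhodamine fluorescence; potency means the concentration at half of the fitted maximal effect; 0% = enzyme reaction without inhibitor and -100% = no enzyme wells; top concentration of the series not given in the record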
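Reaction rates are the 30-min fluorescence difference (ex 525, em 598 nm) in wells containing 15 nM Sfp, 5 uM rhodamine-CoA and 12.5 uM BHQ-2-YbbR at pH 7.6 with 10 mM MgCl2.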
D2 ag – Beta-Arrestin HTS for Positive Allosteric Modulators of the Human D2 Dopamine Receptor: Agonists | DiscoveRx PathHunter D2 beta-arrestin, luminescence, 90 min; 100% = 57 uM dopamine signal | activation, % (concentration not given with the values) | 0.084% of 360,000 active | AID 624465, 2012; in the data active = activation above about 40%; inconclusive = about 15% to 40%; inactive = below about 15%; further: compound concentration not given in the record; the text of the record calls up to 30% inactive
Target sequence (P14416 whole entry, looked up): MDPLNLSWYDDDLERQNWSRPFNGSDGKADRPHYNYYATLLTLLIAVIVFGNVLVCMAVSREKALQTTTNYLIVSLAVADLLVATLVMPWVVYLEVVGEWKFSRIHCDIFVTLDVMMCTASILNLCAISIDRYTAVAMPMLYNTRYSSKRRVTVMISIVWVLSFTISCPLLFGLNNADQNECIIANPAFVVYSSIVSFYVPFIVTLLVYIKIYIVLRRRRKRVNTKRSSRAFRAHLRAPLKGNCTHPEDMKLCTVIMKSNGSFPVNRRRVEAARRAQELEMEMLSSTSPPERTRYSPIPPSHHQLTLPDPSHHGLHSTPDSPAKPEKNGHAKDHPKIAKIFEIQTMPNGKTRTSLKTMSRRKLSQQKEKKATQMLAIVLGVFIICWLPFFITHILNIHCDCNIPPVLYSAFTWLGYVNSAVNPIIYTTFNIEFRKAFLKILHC
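DiscoveRx PathHunter D2 beta-arrestin cells (2,100/well) attached overnight, then compound-stimulated 90 min at 37 C in HBSS/10 mM HEPES/0.1% Tween-20 buffer; beta-galactosidase complementation read by luminescence after 1 h at ambient temperature. Dopamine 57 uM final (EC100) as control.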
gsp agonist – qHTS for Agonist of gsp, the Etiologic Mutation Responsible for Fibrous Dysplasia/McCune-Albright Syndrome: qHTS; 0.13% of 340,000 active; Potency, µM (doses to about 76.9 µM), for the others: top-dose activation (cAMP increase), hits mostly activators; AID 624287, 2012; gsp mutant cells, cAMP HTRF, 30 min; control for the full effect not named in the record; active = well fitted activation curve with a large enough effect; inconclusive = small, poorly fitted or top-dose-only effect, or another doubt; inactive = no such curve, though single readings can be large or run the other way; cell line not stated here;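 further: phosphodiesterase inhibitor Ro 20-1724 added with compounds to block cAMP breakdown; potency means the concentration at half of the fitted maximal effect; nearly all actives have a fitted effect of over 60% in size; about a fifth of the inactives were tested at one dose only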
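Cells stably selected in G418 were plated at 2000/well, grown 16-24 hr, then given compounds in DMSO with the PDE inhibitor […] (300 uM solution added) for 30 min at 37C; cAMP was read by HTRF.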
Menin MLL FP FL – qHTS Assay for Inhibitors Targeting the Menin-MLL Interaction in MLL Related Leukemias: Competition With Fluorescein Labeled MLL-derived Peptide; FP activity change, % at 61.4 µM; 290,000 tested, under 10 active; AID 1766, 2009; Fluorescence polarization, fluorescein-MLL peptide displacement from menin; inconclusive = falling polarisation curve, or a change in total fluorescence; inactive = total fluorescence flat and polarisation flat or rising; no compound was filed as active; the % refers to the polarisation; negative = inhibition;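 further: % of control where 0% means no effect; inhibitors lower the polarisation; unlabelled MLL peptide was the positive control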
PINK1 expr mod – A Quantitative High throughput Screen to Identify Chemical Modulators of PINK1 Expression. Potency, µM (series often up to 76.6 µM), for the others: at the highest dose activation (PINK1 increase), most hits filed as activators. PINK1 immunofluorescence, high-content cytometry, 24 h. 0.2% of 410,000 active. AID 624263, 2012; active = well fitted activation curve with a large enough effect; inconclusive = small, poorly fitted or top-dose-only effect; inactive = flat fitted curve, though single readings scatter; cell line not stated here;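 further: potency means the concentration at half of the fitted maximal effect; % of control where 0% means no effect; nearly all actives have a fitted effect of over 65% in size; a mitochondrial uncoupler was the plate control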
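Cells are seeded, rested 12 hours, then given compound at five concentrations or DMSO for 24 hours. After fixation, blocking and antibody staining, PINK1 amount and mitochondrial localization are scored; CCCP serves as control.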
gsp antag – qHTS for Antagonists of gsp, the Etiologic Mutation Responsible for Fibrous Dysplasia/McCune-Albright Syndrome: qHTS; gsp-mutant cells, cAMP HTRF, 30 min; control for the full effect not named in the record; 0.4% of 340,000 active; Potency, µM (series often up to 76.9 µM), for the others: top-dose activity change, negative = inhibition, usual class: inhibitors; active = falling curve of any shape with a large fitted effect; inconclusive = falling curve, mostly with a smaller effect; inactive = flat or rising curve; cell line not stated here;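 further: intracellular cAMP measured with PDE inhibitor Ro 20-1724 present during compound exposure; potency means the concentration at half of the fitted maximal effect; on the % scale 0 is the no-effect control and ±100 the full control effect; nearly all actives have a fitted effect of over 65% in size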
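Cells, 2000/well, grown 16–24 h in DMEM 10% FBS with 0.5 mg/ml G418, then compounds plus […] (300 uM addition stock), 30 min at 37C. cAMP read by HTRF (cAMP-d2 and anti-cAMP antibody-K in lysis buffer) after 30 min RT.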
* = called active by the depositor; ? = inconclusive; / = not tested or not shown; [ ] = another dose, or the depositor's remark.

SMILES	ClpP mod	Sfp PPTase inh	D2 ag	gsp agonist	Menin MLL FP FL	PINK1 expr mod	gsp antag
O=C1C(C2=NC(C(=O)O)C3C(=O)N(c4ccc(Cl)cc4)C(=O)C23)=C(O)c2ccccc21 (configuration not stated)	1.8%	0%	-3.0	?	2.5	1.7%	4%
C(=N/N1CCN(c2ccccc2)CC1)/c1ccncc1	-3.1%	2%	3.3	5%[15.4 µM]	-1.4	0.8%	-3%
CCOc1ccc(OCCC(=O)N(CC(C)C)c2c(N)n(Cc3ccccc3)c(=O)[nH]c2=O)cc1	-7.1%	/	-2.3	2%	/	0.5%	3%
Cc1cc(C)c(C#N)c(SCC(=O)Nc2ccccc2C(N)=O)n1	-6.6%	-15%	0.7	2%	-1.2	0.6%	2%
O=C(NCc1cccs1)C1CCCN(S(=O)(=O)c2cnc[nH]2)C1 (configuration not stated)	-2.0%	15%	-5.7	27%	1.4	5.1%	0%
O=C1C(=Cc2cccc(F)c2)Cc2ccccc21	-2.9%	/	2.7	/	/	0.9%	/
S=C1NC[C@H](Cc2cccc3ccccc23)N1CC1CCCCC1	-2.1%	12%	-3.6	/	2.0	5.2%	8%
CCOC(=O)C1C(=O)Nc2nc(C)nn2C1c1ccccc1 (configuration not stated)	4.9%	-5%	-1.9	-6%	-0.8	-1.8%[38.3 µM]	4%
CSc1ncnc2c1ncn2CCCN1CCN(c2ccccn2)CC1	-6.0%	/	0.8	1%	/	1.8%	/
CCN=C1S/C(=C/c2ccc(-c3ccc(Cl)cc3C(=O)O)o2)C(=O)N1CC	/	-29%	-1.5	13%	?	-0.2%	7%
O=C(NCC(=O)N1CCN(C/C=C/c2ccccc2)CC1)c1ccc(Br)cc1	-0.6%	/	11	-1%	/	2.3%	-13%
Cc1ccc(N2CC(C(=O)Nc3cccc(S(=O)(=O)N4CCOCC4)c3)CC2=O)cc1 (configuration not stated)	0.5%	/	-2.1	-47%[inhibitor]	/	0.4%	/
COc1ccccc1C(=O)NCCC(=O)Nc1ccncc1	-0.7%	/	-8.3	14%	/	3.3%	-6%
Cc1cc2oc(=O)cc(CN3CCc4ccccc43)c2cc1Cl	-3.0%	-9%	-3.1	3%	-0.2	2.2%	-9%
COc1cc(C(=O)N/N=C(\C)c2ccc(NC(=O)Cc3ccccc3)cc2)ccc1O	0.1%	10%	0.1	12%	/	3.4%	-3%
COC(=O)c1ccc(C(=O)OC)c(NC(=S)N2CCC(C)CC2)c1	-20%	-8%	-4.1	?	-1.5	-1.9%	-7%
O=C(Nc1ccc(N2CCCC2=O)cc1)c1cccc(F)c1	-1.1%	10%	-1.6	-18%	1.8	/	6%
O=C(NC1CCCCC1)c1cc(-c2ccccc2O)on1	/	-10%	-3.9	5%[15.4 µM]	-1.5	0.2%	1%
CNC(=O)[C@@]1(Cc2ccccc2)C=C[C@@H](C)N1C(C)=O	2.0%	23%	1.2	/	-0.3	0.8%	6%
CCN(c1ccc(NC(=O)COC(=O)C2CCN(c3ccc(C(F)(F)F)cn3)CC2)cc1)C(C)C	-9.1%	/	-1.0	?	/	1.7%	-11%
CCCn1nnnc1NCc1ccccc1Cl	1.7%	20%	1.4	5%	3.4	3.0%	0%
O=C(COc1ccccc1Cl)NCCC1=CCCCC1	1.4%	-1%	-1.9	7%	0.6	3.5%	9%
CC1CCc2c(sc3ncn(CC(=O)N4CCCCC4)c(=O)c23)C1 (configuration not stated)	0.2%	9%	-3.0	-18%	-3.9	-1.8%	-3%
Cc1c(CC(=O)NCC(=O)NCC(=O)O)c(=O)oc2cc3c(cc12)CCC(C)(C)O3	3.3%	13%	-1.4	23%	0.2	-1.3%	-2%
C/C(=C\C(=O)c1cccnc1)Nc1ccc(C(=O)O)cc1	1.0%	1%	0.1	-32%[inhibitor]	-1.5	/	-4%
CC(NC(=O)/C(C#N)=C/c1cn[nH]c1-c1ccccc1)c1ccccc1 (configuration not stated)	0.1%	-5%	-0.6	0%	0.0	0.0%	-9%
CCCCOC(=O)c1nnc(-c2ccc(Cl)cc2)o1	/	21%	0.2	16%[15.4 µM]	4.1	-1.4%	10%
COc1ccccc1NS(=O)(=O)c1ccc(C)c(C(=O)NCC(c2ccco2)N(C)C)c1 (configuration not stated)	0.7%	/	2.1	-17%	/	-3.6%	2%
Cc1c(CCOC(=O)C23CC4CC(CC(C)(C4)C2)C3)sc[n+]1CC(=O)c1ccccc1	0.0%	-24%	-0.8	21%	0.0	-1.3%	5%
Brc1ccc2c(c1)C(c1ccc(N3CCOCC3)cc1)=NNC(c1cccs1)=N2	2.0%	-5%	-1.4	-26%	2.4	-2.5%	-9%
S=C(S)OC1CC2CC1C1CCCC21 (configuration not stated)	-3.0%	15%	-2.0	/	25	-0.9%	-3%
COc1ccc(NC(=O)c2cccc(S(=O)(=O)N3CCCCC3)c2)c(OC)c1	-1.5%	3%	-5.5	-5%	/	-0.2%	-15%
CC1CCN(CCOc2cccc(Br)c2)CC1	-1.8%	?	-2.3	4%[15.4 µM]	5.9	-0.8%	18%
CC(NC(=O)COC(=O)CSCc1ccccc1)c1ccccc1 (configuration not stated)	/	11%	0.1	-3%[15.4 µM]	4.0	1.1%	8%
O=C(Cc1ccccc1)NCCSCc1ccco1	-0.3%	-15%	-2.8	-10%	-1.5	/	-6%
COc1ccc(CCn2c(=O)[nH]c3cc(C(=O)NCCN4CCOCC4)ccc3c2=O)cc1OC	0.7%	20%	-0.7	20%	5.5	-3.1%	13%
COc1ccc(OCC(=O)NC2CC(C)(C)NC(C)(C)C2)cc1	0.2%	-2%	-1.4	3%	-2.1	0.0%[38.3 µM]	-7%
COCCCn1c(SCC(=O)N2CCOCC2)nc2cc(Cl)ccc2c1=O	-1.8%	/	4.4	14%	/	0.3%	-12%
Cc1nn(CC(=O)O)c(C)c1N	/	-2%	0.9	9%[15.4 µM]	-4.3	0.1%	14%
CC(=O)N1c2ccc(S(=O)(=O)N3CCC(C(=O)Nc4ccc(F)cc4)CC3)cc2CC1C (configuration not stated)	1.0%	6%	-7.1	8%	-8.7	0.7%	10µM*
CSc1nsc(SCC(=O)Nc2ccccc2F)n1	/	5%	-2.0	6%[15.4 µM]	4.5	0.3%	3%
CCOC(=O)c1c(NC(=O)C2COc3ccccc3O2)sc2c1CC(C)(C)NC2(C)C (configuration not stated)	-3.0%	?	-0.5	-18%	0.6	-3.0%	1%
COc1cc(/C=C/C(=O)NNC(=O)c2cccc(S(=O)(=O)N(C)C)c2)cc(OC)c1OC	-12%	/	-5.5	-6%	/	2.6%	3%
CCOC(=O)c1ccc(S(=O)(=O)Nc2ccc3cn[nH]c3c2)cc1	1.2%	8%	-1.2	-34%[inhibitor]	-0.7	-0.5%	?
O=C(N/N=C/c1ccccc1O)C1CC(=O)N(c2ccc(F)cc2)C1 (configuration not stated)	/	6%	-3.0	-5%[15.4 µM]	/	-0.3%	-5%
CCS(=O)(=O)N1CCC(C(=O)c2ccc(Cl)cc2)CC1	-0.5%	-6%	0.4	-2%	-0.3	?	-14%
COCCNC(=O)c1ccccc1-c1nc(-c2ccccc2OC)no1	-0.3%	16%	-3.0	4%	-2.4	14%[38.3 µM]	-1%
CN(NC(=O)c1ccc(Cl)cc1)c1ncc(C(F)(F)F)cc1Cl	-0.6%	14%	2.0	15%[15.4 µM]	-4.8	-1.9%	-9%
COc1cc(-c2cnc3c(NC=O)cc(-c4ccc(C)cc4)cn23)cc(OC)c1OC	-16%	/	-7.7	/	/	2.7%	/
COc1ccc(NC(=O)c2cc(C)on2)cc1	-1.7%	3%	-2.3	-15%	0.7	1.2%	1%
Fc1ccccc1N1CCN(c2ncnc3[nH]ncc23)CC1	?	9%	-1.8	-7%[15.4 µM]	0.0	-2.0%	-4%
Cc1cc(=O)[nH]c(SCC(=O)c2ccc(O)c(O)c2)n1	/	-58%	5.0	22%	-0.4	0.5%	2%
CCN1CCN(C(=O)CCc2nnc3ccc(N4CCN(c5cccc(OC)c5)CC4)nn23)CC1	-3.3%	10%	-7.7	?	4.0	-1.8%	4%
COc1ccc2oc(C(=O)Nc3nc(-c4ccccn4)cs3)c(C)c2c1	-29%	/	0.7	13%	/	2.9%	-25%
O=C(CN1CCN(S(=O)(=O)c2ccc(F)cc2)CC1)Nc1ccc(Cl)cn1	0.9%	22%	1.5	-2%	4.0	-1.0%	-3%
CCCc1cc(=O)[nH]c(SCC(=O)C(C)(C)C)n1	-0.1%	-5%	0.2	2%	4.7	-1.2%	7%
Cc1c(NC2(C#N)CCCC2)c(=O)n(-c2ccccc2)n1C	0.3%	-12%	-5.8	3%	1.7	1.3%	9%
CCC(C(=O)NN1C(=O)c2ccccc2C1=O)c1ccccc1 (configuration not stated)	-20%	-8%	-2.9	15%[15.4 µM]	2.7	0.1%	-15%
O=[N+]([O-])c1cc([N+](=O)[O-])c(Oc2cc(F)ccc2F)cc1NN1CCCCC1	0.2%	-3%	-2.2	-37%[inhibitor]	-1.0	0.7%	-12%
Cc1[nH]n(-c2ccccc2)c(=O)c1C=NCC1CCCO1 (configuration not stated)	0.0%	6%	2.7	-47%[inhibitor]	-2.7	0.9%	6%
Cc1c(C)n(Cc2ccccc2)c2ccc(C(=O)NCCCN3CCOCC3)cc12	-18%	-19%	-2.4	-5%	8.0	0.2%	2%

High-throughput results (PubChem BioAssay)
